rRNA inh HTS: selective bacterial rRNA inhibition in E. coli | E. coli WT GFP vs humanized-ribosome RFP mutants, fluorescence, 24 h; stronger effect = lower value; DMSO median 0, no signal -100 | GFP signal change (wild-type ribosome), % (concentration not given with the values) | 350,000 tested, 1.6% active;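 active = significant combined selectivity score with lowered wild-type GFP, culture density cut under 30%, mutant RFP and density less affected; inactive = any of these conditions unmet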; also: one replicate is shown; some compounds called inactive have numbers as strong as hits
Vif TR-FRET: inhibitors of Vif binding to APOBEC3G peptide, primary screen, biochemical, TR-FRET, GST-Vif 1-94, biotin-A3G peptide, dose response retest (AID 1117319). TR-FRET GST-Vif / biotin-A3G peptide binding; higher % means a stronger effect; test concentration not given here; strong numbers were not always called active. one-dose inhibition, %; IC50 in µM for titrated hits. 260,000 tested, 0.57% active;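 active = above the screen mean plus three standard deviations and confirmed in dose response; inconclusive = results disagree or hit not tested in dose response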;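 also: Vif residues 1-94 fused to GST binding biotinylated APOBEC3G peptide 110-148; 0% = full assay without inhibitor and 100% = GST in place of GST-Vif; retest series ran down from 100 µM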
MLL AF4-AF9 inh: inhibitors of human MLL-AF4/AF9 interaction | P42568 | AlphaScreen, biotin-AF4 peptide binding to FLAG-AF9 | inhibition, % at 10 µM | 350,000 tested, 0.47% active | AID 651704;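 active = every replicate reaching a set inhibition limit, whatever the replicate mean, cut at about 25% in these data; inconclusive = mean inhibition reaches that limit but some replicates miss it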;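 also: 0% = plate neutral control median and 100% = total signal loss; the record names both 10 and 1 µM as test concentration; the first replicate is given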
Target sequence (P42568 whole entry, looked up): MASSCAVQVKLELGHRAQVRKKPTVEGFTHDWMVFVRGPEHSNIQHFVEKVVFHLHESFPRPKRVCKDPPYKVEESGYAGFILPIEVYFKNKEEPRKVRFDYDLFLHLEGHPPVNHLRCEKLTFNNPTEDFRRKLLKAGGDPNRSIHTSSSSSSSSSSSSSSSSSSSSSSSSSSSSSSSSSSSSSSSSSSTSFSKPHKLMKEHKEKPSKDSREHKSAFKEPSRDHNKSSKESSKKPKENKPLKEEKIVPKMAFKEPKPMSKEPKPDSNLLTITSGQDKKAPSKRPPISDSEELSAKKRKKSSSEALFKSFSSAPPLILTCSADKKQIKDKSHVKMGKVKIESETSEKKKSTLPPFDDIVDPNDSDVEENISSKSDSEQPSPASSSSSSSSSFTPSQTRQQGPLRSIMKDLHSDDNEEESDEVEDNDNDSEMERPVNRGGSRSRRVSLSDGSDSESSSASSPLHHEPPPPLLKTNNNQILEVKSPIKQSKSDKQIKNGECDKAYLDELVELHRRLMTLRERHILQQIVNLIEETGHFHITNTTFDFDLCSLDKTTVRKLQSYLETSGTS
ALR inh: blocks human ALR sulfhydryl oxidase activity; P55789; purified ALR, DTT oxidation, H2O2 HRP-luminol luminescence; inhibition, % (no concentration beside the values); 290,000 tested, 3.8% active;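 active = mean and each replicate at 75% or more; inconclusive = only one of the two met; inactive = neither met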;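 also: stock transfer was 7.5 nL into about 7.5 µL; 0% = neutral wells and 100% = wells with inactivated enzyme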
Target sequence (P55789 whole entry, looked up): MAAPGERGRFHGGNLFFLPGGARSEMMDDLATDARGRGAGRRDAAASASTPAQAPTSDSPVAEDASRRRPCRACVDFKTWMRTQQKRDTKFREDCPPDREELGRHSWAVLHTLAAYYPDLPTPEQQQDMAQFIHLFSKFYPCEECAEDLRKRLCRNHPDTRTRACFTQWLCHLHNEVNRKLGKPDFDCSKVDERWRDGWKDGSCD
Ecoli growth: inhibitors of Escherichia coli growth. AID 1053175. 330,000 tested, 0.21% active. OD600, 23 h; stronger effect = lower value. OD600 absorbance (no concentration beside the values);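 active = OD600 absorbance below the run mean of sample wells minus 3.6 SD, in any replicate, cut at about 0.56 in these data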;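 also: stock transfer was 300 nL into about 60 µL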
FGF22 binding: FGF22 (human) thermal shift binding. recombinant FGF22 thermal shift, SYPRO orange fluorescence; percent of sucrose octasulfate shift, DMSO zero. calls only at 9.99 µM. 340,000 tested, 1.5% active. AID 651658;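 active = melting point raised past a set limit in the mean and every replicate; inconclusive = no clear call; three in four hits are not shown here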
Target sequence (Q9HCT0 whole entry, looked up): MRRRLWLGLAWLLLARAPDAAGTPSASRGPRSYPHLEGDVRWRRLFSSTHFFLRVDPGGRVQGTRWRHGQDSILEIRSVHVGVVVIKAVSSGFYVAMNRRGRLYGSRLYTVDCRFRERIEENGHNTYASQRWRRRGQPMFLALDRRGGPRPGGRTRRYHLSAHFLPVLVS
HNF4A DNA FP: change in binding of human HNF4 alpha to DNA; HNF4a-FITC DNA binding, fluorescence polarization, 1 h; activity change, % at 10 µM; 360,000 tested, 0.3% active; in the data active = activity change above about 30%, passing the limit was not always enough;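 also: controls were the assay level and a saturating level of protein; the project sought stronger binding though the title names inhibitors; some compounds called inactive have numbers as strong as hits; positive values seem to mean higher polarization but the record does not say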
rRNA inh HTS OD600: recorded beside rRNA inh HTS, whose call it bears; OD600 change, %; measured here: OD600 growth;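 optical density of the mix in the first replicate; 0 = DMSO median and -100 = no signal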
rRNA inh HTS RFP: second read-out of rRNA inh HTS, no call of its own (marks repeat the call); RFP signal change, %; measured here: RFP humanized mutant strains;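 first replicate; 0 = DMSO median and -100 = no signal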
* marks the source's active call; other numbers are inactive results; i = inactive; ? = inconclusive; / = no result given.

entry	rRNA inh HTS	rRNA inh HTS OD600	rRNA inh HTS RFP	Vif TR-FRET	MLL AF4-AF9 inh	ALR inh	Ecoli growth	FGF22 binding	HNF4A DNA FP	smiles
1	/	/	/	5.1%	/	-5.2	0.641	/	5.4	O[C@@H]1C2CCCC1[C@]1(O)CCCCC1C2 (some centres not stated)
2	/	/	/	/	-0.7	/	/	i	1.4	CC(C)(C(=O)N1CCC1(C)C(=O)NS(=O)(=O)c1cccc(C#N)c1)c1ccccc1 (configuration not stated)
3	-0.6	-2.5	0.4	/	0.0	/	/	i	/	Cc1ccc(S(=O)(=O)N(C)C[C@@H]2Oc3ccc(NC(=O)CCC(F)(F)F)cc3C(=O)N([C@H](C)CO)C[C@@H]2C)cc1
4	24.9	15.7	13.0	/	2.3	-59.1	0.713	i	-9.2	CC(C)C(NC(=O)/C(=C\c1ccco1)NC(=O)c1ccco1)C(=O)O (configuration not stated)
5	9.0	11.4	0.6	-13.0%	-35.1	-5.5	/	i	-1.2	O=C(N/N=C\c1cc(Br)ccc1O)c1ccc(S(=O)(=O)N2CCCCC2)cc1
6	1.2	4.6	-2.9	/	-0.4	/	/	i	/	CC=Cc1ccc2n(c1=O)C[C@@H]1[C@@H](CO)[C@H](C(=O)Nc3nccs3)N(Cc3cc(F)ccc3F)[C@H]21 (mixture of isomers)
7	2.4	11.9	0.1	/	0.5	-6.4	0.721	i	0.3	COc1ccc(OC)c(CNS(=O)(=O)c2cc(CN3C(=O)c4cccnc4C3=O)ccc2OC)c1
8	-3.3	12.2	0.7	/	-2.7	/	/	i	/	CC=Cc1ccc2n(c1=O)C[C@H]1[C@H](CO)[C@@H](C(=O)NCCc3ccccc3)N(C(=O)CC)[C@@H]21 (mixture of isomers)
9	/	/	/	-2.7%	/	14.3	0.713	/	-0.5	O=C(/C=C/c1ccccc1F)c1ccoc1
10	13.1	7.4	-2.6	-2.4%	/	-15.4	0.718	/	1.8	CCN(CC)CCN1C(=O)C(=O)/C(=C(/O)c2c(C)[nH]c(C(=O)OC)c2C)C1c1ccco1 (configuration not stated)
11	-1.3	2.3	2.1	-4.2%	-1.1	-3.4	0.729	i	3.0	COc1ccc(CC(=O)N2CCC(CCC(=O)Nc3ccccc3)CC2)cc1
12	9.0	14.6	2.2	/	-5.1	/	0.734	i	1.7	CCc1nc(SCC(=O)Nc2cc(OC)ccc2OC)c2c(C)c(C)sc2n1
13	9.9	11.7	-3.4	/	0.3	42.3	/	i	-0.2	Cc1ccc(/C=C/C(=O)NC2=NCCS2)cc1
14	0.2	6.3	0.7	-0.5%	2.5	-2.8	0.706	i	-0.1	Cc1ccc(Cc2nnc(SCC(=O)Nc3ccccc3C)[nH]c2=O)cc1
15	5.3	1.2	3.7	/	-7.2	/	/	i	/	CS(=O)(=O)N1CCCCN2[C@@H](CO)[C@@H](c3ccc(Br)cc3)[C@@H]2C1
16	0.3	4.2	2.5	-2.3%	-1.1	28.1	0.699	i	-1.1	O=C(OCC(=O)N1CCN(c2ccccc2)CC1)c1cccs1
17	/	/	/	3.9%	/	-2.0	0.669	/	-2.4	O=S(=O)(NC1CCCCC1)c1ccc(Cl)nc1
18	0.7	-2.6	-3.7	/	0.1	/	/	i	/	C[C@H]1CCCCO[C@H](CN(C)C(=O)CCC(F)(F)F)[C@@H](C)CN([C@@H](C)CO)C(=O)c2cc(NS(C)(=O)=O)ccc2O1
19	-0.6	1.4	-0.9	/	9.0	/	/	i	/	Cc1cc(C(=O)Nc2cccc3c2O[C@H](CN(C)C(=O)Nc2ccc4c(c2)OCO4)[C@H](C)CN([C@H](C)CO)C3=O)n(C)n1
20	12.5	8.5	0.2	32.2%	0.4	10.8	0.717	i	-1.2	Cn1nccc1C(=O)N(CCN1CCCCC1)CC1CCCN(C2CCCC2)C1 (configuration not stated)
21	-1.5	0.1	-1.4	/	1.2	/	/	i	/	CC(C)CC#Cc1ccc2c(c1)O[C@H](CN(C)Cc1ccccc1F)[C@@H](C)CN([C@@H](C)CO)S2(=O)=O
22	/	/	/	6.9%	/	4.8	0.713	/	-1.7	COc1cc(OC)cc(C(=O)Nc2ncc3c(n2)CC(C)CC3=O)c1 (configuration not stated)
23	3.7	10.9	-0.1	7.5%	0.0	/	0.686	i	3.3	COc1ccc(S(=O)(=O)NCc2ccccn2)cc1OC
24	3.1	-9.1	-4.0	/	-0.5	/	/	i	/	N#C[C@@H]1[C@@H](c2ccc(-c3cccnc3)cc2)[C@H](CO)N1C(=O)C1CCOCC1
25	-0.2	-3.4	0.1	/	-1.6	-22.8	0.686	i	-3.7	Cc1ccc(CCN2CC(C(=O)NCCc3ccccc3)CC2=O)cc1 (configuration not stated)
26	-3.6	-5.4	-2.3	/	-2.6	-4.1	0.641	i	0.2	COc1ccc(CCNC(=O)C(C)SCc2ccccc2)cc1 (configuration not stated)
27	15.5	13.6	-2.9	6.0%	2.3	-9.3	0.7	i	-5.4	CC1CCN(c2ccc(N3C(=O)C4CCCCC4C3=O)cc2[N+](=O)[O-])CC1 (configuration not stated)
28	4.5	-12.8	5.5	/	-0.1	/	/	i	/	COc1ccc2c3c([nH]c2c1)[C@@H](CO)N(C(=O)C1CCCCC1)CC31CCN(Cc2nccs2)CC1
29	7.6	6.2	-1.7	16.9%	0.3	-30.6	/	/	1.3	Cc1[nH]n(-c2ccccc2)c(=O)c1/C=N/c1nn[nH]n1
30	1.9	-12.3	7.8	-2.0%	-0.2	7.4	0.685	i	0.4	COc1ccc2[nH]c(C(=O)N(C)Cc3ccccc3)c(C)c2c1
31	/	/	/	/	/	-5.3	0.649	/	3.1	COc1cc2cc(CCCOC(=O)c3cccc(Br)c3)oc(=O)c2cc1OC
32	4.4	7.7	-1.1	/	-4.5	-0.5	0.67	i	-0.4	CC(C)(C)n1nc2c(c1NC(=O)Cc1ccc(Cl)cc1)CS(=O)(=O)C2
33	0.3	6.6	-0.9	/	0.3	/	/	i	/	Cc1ccc(S(=O)(=O)N[C@H]2CC[C@H](CC(=O)NCc3ccccc3F)O[C@@H]2CO)cc1
34	/	/	/	7.9%	/	-9.8	0.734	/	2.6	COc1ccc(-c2nnc(SC(C)C(=O)Nc3nccs3)n2Cc2ccccc2)cc1OC (configuration not stated)
35	2.6	3.9	-1.0	/	-19.3	/	/	i	/	O=C(Nc1nccs1)[C@@H]1[C@@H](CO)[C@@H]2Cn3c(cccc3=O)[C@H]1N2C(=O)C1CCC1
36	-26.1	-39.5	-26.4	27.5%	8.2	18.9	0.687	i	-0.8	Cc1ccc(NC(=S)NNC(=O)c2nnn(-c3ccccc3)c2C)cc1
37	-25.6	-58.5	-3.1	/	0.6	0.1	0.638	i	-0.5	COc1ccc(C)cc1NC(=O)c1nn(-c2ccccc2)cc1OC
38	-2.9	-6.9	-0.7	/	-1.8	/	/	i	/	C[C@@H]1CN([C@@H](C)CO)C(=O)Cc2cc(NS(=O)(=O)c3ccc(Cl)cc3)ccc2O[C@@H]1CN(C)C(=O)NC1CCCCC1
39	1.1	-10.4	-1.3	-5.7%	-1.5	-2.4	0.681	i	-2.9	Cc1ccc2[nH]c(=O)c(CN(CC3COCCO3)C(=O)Nc3ccccc3C)cc2c1 (configuration not stated)
40	0.9	-8.9	-3.6	65.9%	-9.6	/	0.771	i	-9.9	COc1ccc(C2CC(c3cccs3)n3nc(N)nc3N2)cc1 (configuration not stated)
41	1.0	-0.4	1.8	/	-1.2	/	/	i	/	CO[C@H]1CN(C)C(=O)c2cc(NS(=O)(=O)c3ccccc3C)ccc2OC[C@H](C)N(S(C)(=O)=O)C[C@H]1C
42	/	/	/	-0.3%	-1.7	9.7	0.678	/	1.5	COc1ccc(/C=C2\SC(=O)N(CCCC(=O)Nc3cc(Cl)ccc3C(=O)O)C2=O)cc1
43	3.4	9.7	-3.8	/	-1.7	/	/	i	/	C[C@@H]1CN([C@@H](C)CO)S(=O)(=O)c2ccc(-c3ccncc3)cc2O[C@@H]1CN(C)Cc1cncnc1
44	-7.8	-11.3	1.0	/	1.0	-9.0	0.682	i	-1.1	C=CCN(c1nc(C)cc(OC)n1)S(=O)(=O)c1ccc(C)cc1
45	/	/	/	0.4%	/	-0.4	0.699	/	3.0	COc1ccc(N(CC(=O)NCc2ccccc2)S(=O)(=O)c2c(C)noc2C)cc1
46	-10.1	-42.1	0.3	-8.8%	0.7	-15.6	0.66	i	-0.2	CC(C)(C)Nc1nc(SCC(=O)Nc2ccccc2Cl)nc(N2CCOCC2)n1
47	/	/	/	31.5%	/	0.0	0.751	/	-0.3	COc1ccc(C(N)=O)cc1NC(=O)c1cccc(F)c1
48	-1.9	16.6	4.0	?	5.8	8.0	0.787	i	-1.2	Cn1c(=O)c2c(SC3CCCC3)nc(C3CC3)nc2n(C)c1=O
49	3.9	-2.5	1.4	-6.5%	3.5	-7.2	0.724	i	5.2	O=c1c(Cl)c(N2CCNCC2)cnn1C12CC3CC(CC(C3)C1)C2
50	11.8	13.6	-0.3	7.8%	-3.2	/	/	i	4.8	COc1cc(NC(=O)CCc2c(C)noc2C)c(C(=O)O)cc1OC
51	-20.4	-21.6	2.3	-5.5%	-1.6	/	0.647	i	-2.0	CCN(CC(=O)Nc1ccc(C)c(S(=O)(=O)N(C)C)c1)Cc1ccccc1
52	-5.9	-14.3	4.8	/	0.5	-4.2	0.752	i	0.6	COc1cccc(C(=O)NCCNC(=O)c2cnccn2)c1
53	2.4	-2.5	-5.5	-3.4%	-4.5	98.4*	0.765	i	-4.0	COc1ccc(-c2nc(CS(=O)CC(=O)NCC3CCCO3)c(C)o2)cc1 (configuration not stated)
54	-1.1	12.7	-0.7	/	-2.6	/	/	i	/	CCC(=O)N1CCCCN2[C@@H](CO)[C@H](c3ccc(-c4cccc(C#N)c4)cc3)[C@@H]2C1
55	/	/	/	-1.9%	/	-2.8	0.665	/	-4.3	Cc1ccc(S(=O)(=O)N2CC(=NO)C2)cc1
56	5.9	11.3	1.3	/	-4.9	-1.6	0.67	i	1.8	Cc1ccc(C)c(NC(=O)NCCN2CCCCC2)c1
57	3.2	5.2	0.4	/	3.2	-11.8	0.639	i	0.3	CN1CCC(=O)N(CCOc2ccccc2)CC1
58	/	/	/	11.2%	/	97.8*	0.679	/	3.0	CSc1ccc(NC(=O)NCCN2CCc3ccccc3C2)cc1
59	3.9	11.9	-1.2	/	-0.7	/	/	i	/	C[C@@H]1CN([C@@H](C)CO)C(=O)c2cc(Br)cnc2O[C@@H]1CN(C)C(=O)c1ccccc1F

Compound activity (PubChem BioAssay)

Some of the compounds tested (hit frequency here may not be typical).
